TRPML1 blocker = blocks the human TRPML1 channel | Q9GZU1 | TRPML1-inducible cells, Ca2+ dye fluorescence, FDSS; active compounds read low; inhibition of EC80 agonist-evoked calcium signal | activity change, negative = inhibition, % (test concentration not listed) | hit rate 0.02% among 390,000 | AID 624415; in the data active means activity change below about -50%; inconclusive means about -30% to -50%; inactive means above about -30%;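 also: stimulus is agonist 54-4 at its EC80 concentration; % is scaled to controls: 0 for no effect and ±100 for the full control effect; compound concentration not given in the record; the text of the record puts the active cut at -80%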
Target sequence (Q9GZU1 whole entry, looked up): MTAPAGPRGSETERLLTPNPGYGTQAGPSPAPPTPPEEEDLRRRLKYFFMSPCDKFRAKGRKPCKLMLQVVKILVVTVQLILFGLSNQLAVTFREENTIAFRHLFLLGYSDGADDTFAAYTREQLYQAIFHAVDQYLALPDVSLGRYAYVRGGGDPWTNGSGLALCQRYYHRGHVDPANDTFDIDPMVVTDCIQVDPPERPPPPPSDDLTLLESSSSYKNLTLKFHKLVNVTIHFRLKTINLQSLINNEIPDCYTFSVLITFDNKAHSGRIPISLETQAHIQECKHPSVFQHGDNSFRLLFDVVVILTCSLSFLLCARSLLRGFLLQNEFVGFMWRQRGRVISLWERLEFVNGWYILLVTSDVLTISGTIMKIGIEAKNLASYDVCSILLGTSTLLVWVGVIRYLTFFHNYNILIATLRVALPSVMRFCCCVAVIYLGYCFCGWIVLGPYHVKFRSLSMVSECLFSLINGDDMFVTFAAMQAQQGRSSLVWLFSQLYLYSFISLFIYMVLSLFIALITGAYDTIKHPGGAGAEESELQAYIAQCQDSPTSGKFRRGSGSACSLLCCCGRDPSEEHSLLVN
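Calcium fluorescence in TRPML1-DL cells induced overnight with Tet: a 110 s read after compound pin addition, then a 110 s antagonist read after challenge with 54-4 at 4 uM final (EC80).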
Six1-Eya2 blk = blocks human Six1 binding to Eya2 | AlphaScreen GST-Six1/His-Eya2 binding, biochemical; active compounds read low; control for the full effect not named in the record | hit rate 0.56% among 360,000 | activity change, % (concentration not given with the values); in the data active = activity change below about -65%; inconclusive = about -30% to -65%; inactive = above about -30%; also: % is scaled to controls: 0 for no effect and ±100 for the full control effect
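AlphaScreen with GST-Six1 and His-Eya2 (5X mix: 250 nM and 500 nM), glutathione donor and nickel acceptor beads; buffer 50 mM Tris pH 8.0, 300 mM NaCl, 1 mM TCEP; 1 h at 37 C in the dark.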
D2 ag = activates the human D2 dopamine receptor; P14416; DiscoveRx PathHunter D2 beta-arrestin, luminescence, 90 min; 100% = 57 uM dopamine signal; activation, % (concentration not given with the values); hit rate 0.084% among 360,000; in the data active = activation above about 40%; inconclusive = about 15% to 40%; inactive = below about 15%; also: compound concentration not given in the record; the text of the record calls up to 30% inactive
Target sequence (P14416 whole entry, looked up): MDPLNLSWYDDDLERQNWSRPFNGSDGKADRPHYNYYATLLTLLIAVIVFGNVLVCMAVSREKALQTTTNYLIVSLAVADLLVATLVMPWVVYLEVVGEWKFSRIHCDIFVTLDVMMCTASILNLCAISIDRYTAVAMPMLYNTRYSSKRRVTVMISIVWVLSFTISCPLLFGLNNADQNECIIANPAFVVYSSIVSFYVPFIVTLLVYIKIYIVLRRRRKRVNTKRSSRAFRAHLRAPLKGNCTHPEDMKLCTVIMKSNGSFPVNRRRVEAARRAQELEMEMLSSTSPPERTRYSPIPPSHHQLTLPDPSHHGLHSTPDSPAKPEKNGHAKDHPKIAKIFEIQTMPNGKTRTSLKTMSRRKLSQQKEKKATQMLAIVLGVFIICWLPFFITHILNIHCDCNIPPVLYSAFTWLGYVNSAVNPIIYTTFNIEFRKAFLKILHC
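Agonist mode: compounds alone added to overnight-plated D2 PathHunter cells for 90 min at 37 C, with 57 uM final dopamine (EC100) defining full response. Beta-arrestin recruitment detected by chemiluminescent reagent, read after 1 h at ambient temperature.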
TRPML1 ag = activates the human TRPML1 channel; TRPML1-expressing cells, Ca2+ dye fluorescence, FDSS; host cell line not named in the record; reference of the full effect not given here; activation, % (concentration not given with the values); hit rate 0.12% among 410,000; AID 624414; in the data active = activation above about 50%; inconclusive = about 30% to 50%; inactive = below about 30%; also: 0% is about no effect; the text of the record puts the active cut at 80%
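Tet-induced TRPML1-DL cells, 1,500 per well, cultured overnight, were loaded with a no-wash Ca2+ dye for 45–90 min. Calcium fluorescence was recorded on the FDSS for 110 s after compound addition, before the EC80 agonist (4 uM 54-4) was added.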
PINK1 expr mod = PINK1 expression modulation | PINK1 immunofluorescence, high-content cytometry, 24 h | Potency, µM (titrated, usually from 76.6 µM), for the others: at the highest dose activation (PINK1 increase), most hits filed as activators | hit rate 0.2% among 410,000; active = well fitted activation curve with a large enough effect; inconclusive = small, poorly fitted or top-dose-only effect; inactive = flat fitted curve, though single readings scatter; cell line not stated here;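 also: potency is read from the fitted curve at half-maximal effect; % of control where 0% means no effect; nearly all actives have a fitted effect of over 65% in size; a mitochondrial uncoupler was the plate control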
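Fluorescence from anti-PINK1 antibody, together with nuclear and cell stains, was scanned on a laser-scanning cytometer. Before staining, stable-line cells were incubated 24 hours with compounds at 5 concentrations; primary antibody 12 h at 10 degrees C.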
CtBP-E1A inh = blocks the CtBP interaction with E1A | AlphaScreen GST-E1A/His-CtBP binding, 1536-well; active compounds read low; control for the full effect not named in the record | hit rate 0.49% among 340,000 | activity change, % (no concentration beside the values); in the data active means activity change below about -65%; inconclusive means about -30% to -65%; inactive means above about -30%; also: % is scaled to controls: 0 for no effect and ±100 for the full control effect
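Homogeneous bead-based format: GST-tagged E1A captured on glutathione donor beads, His-tagged CtBP on nickel acceptor beads; compounds precede bead addition by 2 h at 37 °C.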
Active calls of the source: *; ? = inconclusive; . = no result given; & = joins results of further samples; [ ] = remark or other dose.

SMILES	TRPML1 blocker	Six1-Eya2 blk	D2 ag	TRPML1 ag	PINK1 expr mod	CtBP-E1A inh
COc1ccc([C@H]2C[C@H](n3cc(COC(=O)c4ccccc4)nn3)[C@@H](O)CN2C(=O)C2CCCCC2)cc1	1	12	-1.0	4.3	1.2%	0
C/C(CC(=O)Nc1ccc(Cl)c(Cl)c1)=N\NC(=O)C(=O)N1CCCCC1	-10	7	-3.7	0.2	3.2%	5
Cc1ccc(NC(=O)CSc2nc3ccccc3c(=O)n2CCCC(=O)N2CCCC2)cc1	5	19	-2.4	2.5	.	0
COc1ccc(NC(=O)CSCc2cc(=O)n3cc(C)sc3n2)cc1	-12	5	9.4	0.2	0.2%	-5
CC(=O)Nc1ccc(NC(=O)c2cc(-c3ccc4c(c3)OCCO4)on2)cc1	20	.	.	-0.4	3.8%	.
NC(=O)C(Cc1ccccc1)N1C(=O)c2ccccc2C1=O (stereo not drawn)	5	3	-1.9	-0.8	-0.9%	5
CN(C)Cc1c(C(=O)N/N=C/c2ccc(OCc3ccc(F)cc3)cc2)nnn1-c1nonc1N	-9	3	-6.5	-0.9	8.6%	5
Cn1c(SCc2ccc(C#N)cc2)nnc1-c1cccc(Cl)c1	19	2	0.3	1.0	-1.6%	-10
C[C@H]1CN([C@@H](C)CO)C(=O)CCCn2nncc2CO[C@H]1CN(C)S(=O)(=O)c1ccc2ccccc2c1	.	-12	4.5	.	-0.4%	-9
Cc1ccc(/C=N/NC(=O)c2ccoc2C)o1	6	2	-0.8	-0.4	0.4%	2
O=C(O)CN1C(=O)/C(=C\c2cccc(OCc3ccc(Cl)cc3)c2)SC1=S	15	3	1.1	-0.9	0.1%	.
O=C(NNC(=O)C12CC3CC(CC(Cl)(C3)C1)C2)c1ccncc1	7	14	-5.0	0.0	-0.2%	5
CCOC(=O)C1CCN(C(=O)COc2ccc(Br)cc2Br)CC1	7	-4	-0.1	-0.9	1.2%	4
CC1(C)Cc2c(sc(NC(=O)C(=O)NCCCN3CCOCC3)c2C#N)CO1	9	6	-5.9	0.5	-1.1%	.
CCOC(=O)CNC1CC(=O)N(c2cccc(Cl)c2)C1=O (stereo not drawn)	8	3	-1.3	0.3	.	11

The listing continues.
SMILES	TRPML1 blocker	Six1-Eya2 blk	D2 ag	TRPML1 ag	PINK1 expr mod	CtBP-E1A inh
O=C(NC1CCCCCCC1)c1ccco1	5	1	1.9	-0.2	12%[38.3 µM]	0
COc1ccc(-c2noc(CSc3nc4ccccc4[nH]3)n2)cc1OC	1	.	.	-0.7	0.5%	.
Cc1ccc(-c2cc(C(F)(F)F)n3nc(C(=O)Nc4ccc(Cl)cc4Cl)cc3n2)cc1	11	.	.	-0.1	0.6%	.
COC(=O)c1ccc(S(=O)(=O)N2CCCCCC2)cc1	20	9	-2.4	1.2	-1.6%	-10
O=c1[nH]c(C2CCCN(S(=O)(=O)c3ccccc3)C2)nc2c1nnn2Cc1cccc(Cl)c1 (stereo not drawn)	23	-7	6.2	3.3	-2.3%	13
C=CCn1c(C)nnc1SCC(=O)Nc1ccc2c(c1)OCCO2	3	8	1.8	2.2	-2.4%	0
O=C(COc1cccc(C(F)(F)F)c1)Nc1nnc(C2CC2)s1	7	1	-2.6	-0.4	1.4%	8
Cc1ccc(-c2cc(C(=O)O)c3cc(Br)ccc3n2)s1	-7&6	2&-10	-2.2&-6.0	1.0&0.0	0.3%&-2.2%	0
CCC(=O)Nc1ccc(S(=O)(=O)Nc2nccs2)cc1	-12	1	-1.6	-0.3	1.0%	4
CCCc1nnc(SCC(=O)NC2CCCC2)n1CCOC	14	9	-3.4	1.1	1.3%	3
Cc1ccccc1OCC(O)Cn1c(Br)nc2c1c(=O)n(C)c(=O)n2C (stereo not drawn)	2	0	-0.3	0.2	-0.4%	.
Cc1ccc(S(=O)(=O)N2CCOCC2)cc1C(=O)N1CCc2ccccc21	-9	-4	0.4	-0.6	3.4%	0
Cn1cccc1C(=O)NCC(c1ccc(F)cc1)N1CCOCC1 (stereo not drawn)	-12	0	-2.9	0.5	0.4%	-13
CCN(c1ccc(NC(=O)COC(=O)c2ccc(C)c(S(=O)(=O)N3CCOCC3)c2)cc1)C(C)C	-7	-28	-2.0	-1.0	-1.1%	-28
COc1ccc(NC(=O)CSc2nnc(COc3ccccc3)n2Cc2ccco2)cc1OC	4	-6	-0.5	-0.3	-1.8%	0

(cont.)
SMILES	TRPML1 blocker	Six1-Eya2 blk	D2 ag	TRPML1 ag	PINK1 expr mod	CtBP-E1A inh
COc1cccc(NC(=O)CCNC(=O)c2ccccc2Cl)c1	3	2	0.0	-0.5	-0.9%	2
Cc1ccc(-c2nn(CC(=O)NCc3ccco3)c(=O)c3ccccc23)cc1	10	0	0.1	0.1	9.5%	0
Cc1cc(C)c2ccc(/C=N/O)nc2c1O	-9	-24	-1.7	1.6	-0.4%	-13
CC(C)=CCC/C(C)=C/CNC(=O)C[C@H]1C[C@H](C(=O)N2CCCCC2)[C@@]2(CCc3ccccc3)c3[nH]c4ccc(Cl)cc4c3CCN2C1=O	5	-5	-0.8	-0.7	0.5%	2
O=c1c2ccccc2nc2n1C(CSCc1ccc(Cl)cc1)CS2 (stereo not drawn)	-1	3	7.8	0.2	-3.4%	4
O=C(CN1C(=O)C2CC=CCC2C1=O)Nc1ccccc1N1CCCC1 (stereo not drawn)	-12	21	-5.9	0.0	0.3%	3
O=C(COC(=O)c1cccc(F)c1)Nc1cccc(S(=O)(=O)N2CCOCC2)c1	-3	-5	0.4	-0.7	0.8%	9
Cc1cc(C)n(CCCNCC(O)c2ccccc2)n1 (stereo not drawn)	8&2	3&3	-4.3&-0.8	-0.1&2.4	-1.3%&-1.2%	7&10
O=C(NCc1ccc(Cl)cc1)C1CCN(S(=O)(=O)c2cccc3nonc23)CC1	14&4	-3	4.5	-0.1&-0.3	16%&13%	1
Cc1ccc(CSc2nc3cccnc3n2Cc2ccc(C(=O)NCCc3ccccc3)cc2)cc1	5	.	.	-0.1	9.7%	.
Cn1cc(C(=O)c2ccccc2C(=O)O)cc1C(=O)C(Cl)(Cl)Cl	8	11	-2.9	0.9	0.8%	1
O=C(Nc1ccc(F)cc1)c1cccc(N2C(=O)C3C4CCC(C4)C3C2=O)c1 (stereo not drawn)	-9	2	1.1	1.1	-1.7%	8
Cc1ccc(NC(=O)C[n+]2cc(-c3ccccc3)n3c2CCC3)cc1	-6	-2	-1.5	0.9	0.0%	.
C/C=C(\C)CN1CCC(Oc2cccc(C(=O)NCc3ccccn3)c2)CC1	16	15	-6.4	-0.2	-0.5%	-1
O=C1NC[C@@H](CCCCN2CCN(CCC3CCCCC3)C(=O)C2=O)N(Cc2ccccc2)C1=O	.	-3	.	-0.4	0.3%	0

Next section (3 carried over from the part before).
SMILES	TRPML1 blocker	Six1-Eya2 blk	D2 ag	TRPML1 ag	PINK1 expr mod	CtBP-E1A inh
Cc1ccc(NC(=O)C[n+]2cc(-c3ccccc3)n3c2CCC3)cc1	-6	-2	-1.5	0.9	0.0%	.
C/C=C(\C)CN1CCC(Oc2cccc(C(=O)NCc3ccccn3)c2)CC1	16	15	-6.4	-0.2	-0.5%	-1
O=C1NC[C@@H](CCCCN2CCN(CCC3CCCCC3)C(=O)C2=O)N(Cc2ccccc2)C1=O	.	-3	.	-0.4	0.3%	0
COc1ccc(S(=O)(=O)Nc2ccc3c(c2)N(C(C)=O)CCC3)cc1OC	24	0	3.4	-0.7	-0.7%	9
COc1cc(-c2coc3c(C(=O)NCc4ccc(OC)c(OC)c4)cccc23)ccc1O	.	?	68*	-1.0	3.0%	?
COc1ccc(NC(=O)CSc2nnc(NC(=O)c3ccco3)s2)cc1	-6	1	-4.5	-0.6	4.2%	7
CCC(C)NC(=O)CSc1ccc(S(=O)(=O)N2CCN(Cc3ccccc3)CC2)cn1 (stereo not drawn)	-3	-1	-1.4	0.3	1.3%	.
COC(=O)c1noc(-c2ccc(C)cc2)n1	9	4	-2.8	0.1	-0.3%[38.3 µM]	6
O=C(NC1CCC(O)CC1)c1ccc2c(c1)S(=O)(=O)N=C1CCCCCN12 (stereo not drawn)	-8	1	2.2	0.0	-0.2%	3
Cc1ccc(N(CC(=O)NCCSCc2ccco2)S(=O)(=O)c2ccc(F)cc2)cc1	4	-18	-2.0	1.2	0.6%	.
O=C(Nc1cc([N+](=O)[O-])ccc1F)C1CC1	-28	11	3.1	0.2	0.6%	-12
CCOC(=O)C1=C(C)NC(=O)NC1C(C)C (stereo not drawn)	11	0	-8.2	-0.1	-0.7%	8
O=C(CCn1cccn1)N1CCCC(N2CCN(c3cccc(C(F)(F)F)c3)CC2)C1 (stereo not drawn)	20	-3	-4.0	1.4	0.4%	3
COc1ccc(S(=O)(=O)NCCc2sc(-c3cccc(C)c3)nc2C)cc1	2	.	.	1.9	-0.1%	.
Cc1ccc(S(=O)(=O)N=S(CC2CC2(Cl)Cl)CC2CC2(Cl)Cl)cc1 (stereo not drawn)	20	2	-3.8	0.8	19%[38.3 µM]	2
CC1CN(/C=C/C(=O)C(F)(F)F)CC(C)O1 (stereo not drawn)	36	2	-0.4	-0.1	-1.0%	4
Fc1ccc(Nc2ncnc3sc4c(c23)CCC4)cc1	-6	1	-0.2	3.3	-0.6%	6
O=C(O)c1cccc(S(=O)(=O)N2CCN(C(c3ccccc3)c3ccccc3)CC2)c1	-23	3	-1.8	0.4	1.9%	0

Additional records.
SMILES	TRPML1 blocker	Six1-Eya2 blk	D2 ag	TRPML1 ag	PINK1 expr mod	CtBP-E1A inh
C=CCn1c(SCC)nc(O)cc1=O	-10	5	-3.0	12	2.7%[38.3 µM]	5
Cc1ccc(C(C)NC(=O)Cc2cccs2)cc1C (stereo not drawn)	2	-14	-1.6	-0.5	-0.6%	0
COc1ccc(CCNc2nc(-c3ccco3)cc(C(F)(F)F)n2)cc1OC	28	0	-1.9	1.4	3.4%	-2
CCOC(=O)N1CCN(C(=O)COC(=O)Cc2ccc(OC)cc2)CC1	-7	2	-4.0	-0.7	1.7%	-11

The order is random; overall some 1% were active at least once.
